Compound activity (PubChem BioAssay)
Vif A3G – inhibitors of Vif binding to APOBEC3G peptide, primary screen, biochemical, TR-FRET, GST-Vif 1-94, biotin-A3G peptide, dose response retest (AID 1117319); TR-FRET GST-Vif / biotin-A3G peptide binding; higher % means a stronger effect; test concentration not given here; strong numbers were not always called active; inhibition, %; hits with a dose series show IC50 in µM; 0.57% of 260,000 active;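 active = above the screen mean plus three standard deviations and confirmed in dose response; inconclusive = results disagree or hit not tested in dose response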;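 also: Vif residues 1-94 fused to GST binding biotinylated APOBEC3G peptide 110-148; 0% = full assay without inhibitor and 100% = GST in place of GST-Vif; retest series ran down from 100 µM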
T cruzi inh – T. cruzi replication inhibition. inhibition, % (test concentration not listed). AID 1885. T. cruzi beta-gal in NIH3T3, luminescence, 90 h. 1.4% of 300,000 active;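 active = mean inhibition across valid replicates above about 55%, limit read from the data; inconclusive = mean below that limit but half or more replicates reach it; inactive = mean below it, under half of replicates reach it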;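 also: signal also drops with host cell toxicity which is not excluded here; 0% = plate median of DMSO wells and 100% = zero luminescence signal; higher percent means less beta-gal luminescence so fewer parasites; stock transfer was 50 nL into about 50 µL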
Calb FLC – affects C. albicans growth with fluconazole; C. albicans CaCi-2 (fluconazole-resistant clinical isolate) + fluconazole, Alamar Blue growth, 48 h; growth inhibition, % (concentration not given with the values); 0.57% of 300,000 active; AID 1979;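 active = most replicates above 75%; inconclusive = exactly half above 75%; inactive = most below 75%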;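 also: all wells also contain fluconazole at 8 µg/ml as a sub-toxic cotreatment; 0% = median of DMSO wells and 100% = median of geldanamycin control wells; wells of about 8 µL received 7.5 nL stock; the first replicate is given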
MLL AF4-AF9 inh – inhibitors of human MLL-AF4/AF9 interaction | 0.47% of 350,000 active | AID 651704 | P42568 | AlphaScreen, biotin-AF4 peptide binding to FLAG-AF9 | inhibition, % at 10 µM;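 active = every replicate reaching a set inhibition limit, whatever the replicate mean, cut at about 25% in these data; inconclusive = mean inhibition reaches that limit but some replicates miss it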;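 also: 0% = plate neutral control median and 100% = total signal loss; the record names both 10 and 1 µM as test concentration; the first replicate is given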
Target sequence (P42568 whole entry, looked up): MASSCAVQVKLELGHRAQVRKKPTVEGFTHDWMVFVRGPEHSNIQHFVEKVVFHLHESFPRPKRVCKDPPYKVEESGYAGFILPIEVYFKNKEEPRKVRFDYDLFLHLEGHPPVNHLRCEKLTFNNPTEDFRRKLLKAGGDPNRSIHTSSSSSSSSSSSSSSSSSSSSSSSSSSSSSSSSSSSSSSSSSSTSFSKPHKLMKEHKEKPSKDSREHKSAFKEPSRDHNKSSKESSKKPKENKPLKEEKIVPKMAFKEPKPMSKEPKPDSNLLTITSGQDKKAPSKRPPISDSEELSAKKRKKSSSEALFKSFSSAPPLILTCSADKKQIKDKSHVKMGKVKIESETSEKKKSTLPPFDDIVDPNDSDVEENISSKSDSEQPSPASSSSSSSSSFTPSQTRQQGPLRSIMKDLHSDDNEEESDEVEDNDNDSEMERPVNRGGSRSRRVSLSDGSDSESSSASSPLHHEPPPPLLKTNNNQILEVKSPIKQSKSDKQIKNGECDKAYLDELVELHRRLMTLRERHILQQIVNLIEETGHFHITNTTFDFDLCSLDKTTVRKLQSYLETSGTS
Ecoli rRNA inh – inhibitors of bacterial rRNA selective over humanized ribosomes. AID 720706. GFP signal change (wild-type ribosome), % (concentration not given with the values). 1.6% of 350,000 active. E. coli WT GFP vs humanized-ribosome RFP mutants, fluorescence, 24 h; active compounds read low; DMSO median 0, no signal -100;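 active = significant combined selectivity score with lowered wild-type GFP, culture density cut under 30%, mutant RFP and density less affected; inactive = any of these conditions unmet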; also: one replicate is shown; some compounds called inactive have numbers as strong as hits
RanGTP-Impb inh – disruptors of Ran-importin-beta complex formation – biochemical, FRET, CFP-Ran, YFP-importin-beta, homogeneous, primary screen | cell-free CFP-Ran/YFP-importin-beta FRET ratio | inhibition, % (concentration not given with the values) | 1.1% of 300,000 active | AID 2216;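 active = most replicates above 15%; inconclusive = exactly half above 15%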;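 also: 0% = DMSO wells and 100% = Ran loaded with GDP instead of GTP; wells of about 40 µL received 100 nL stock; the first replicate is given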
Bfl-1 A1 inh – inhibitors of the anti-apoptotic protein A1, read as caspase activation; 0.066% of 330,000 active; MEF A1-2A-BIM cells, Caspase-Glo 3/7 luminescence, 3 h; percent of clofoctol response, vehicle zero; caspase activation, % (test concentration not listed);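 active = over half of replicate activation scores above 10%, or exactly half above 10 with the replicate mean above 10; inconclusive = replicate mean below 10 yet half the replicates above 10; inactive = over half of replicates below 10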;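 also: wells of about 30 µL received 50 nL stock; many hits fall short of the cut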
Beta apoptosis – blocks beta cell apoptosis | INS-1E cytokine-induced death, ATP luminescence, 48 h; percent of positive-control rescue, neutral wells zero | AID 435005 | protection from apoptosis, % (concentration not given with the values) | 0.8% of 300,000 active;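 active = all replicates at 75% or more, or half of them and the mean; inconclusive = half reach 75% but not the mean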;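 also: 0% = cytokine-treated negative control wells and 100% = positive control rescue; higher means more ATP so stronger rescue from cytokine killing; wells of about 40 µL received 100 nL stock; the first replicate is given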
Ecoli rRNA inh OD600 – recorded beside Ecoli rRNA inh, whose call it bears; OD600 change, %; measured here: OD600 growth;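 optical density of the mix in the first replicate; 0 = DMSO median and -100 = no signal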
Ecoli rRNA inh RFP – further read-out of Ecoli rRNA inh, marked with its call; RFP signal change, %; measured here: RFP humanized mutant strains;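 first replicate; 0 = DMSO median and -100 = no signal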
The depositor's hits bear a star; ? = inconclusive; . = not tested or not shown.

mol	Vif A3G	T cruzi inh	Calb FLC	MLL AF4-AF9 inh	Ecoli rRNA inh	Ecoli rRNA inh OD600	Ecoli rRNA inh RFP	RanGTP-Impb inh	Bfl-1 A1 inh	Beta apoptosis
CCOC(=O)C1SC2(C(F)F)CC1(O)c1c(c(OC)c3occc3c1OC)O2 (stereo not drawn)	3%	-2	3	.	.	.	.	5.0	-0.3	-4
OC(c1ccccc1)(c1ccccc1)C1CN2CCC1CC2 (stereo not drawn)	.	-2	-6	-1.3	15	7	0.8	-0.7	0.2	-5
CCCCCc1cc(O)c2c3c(c(=O)oc2c1)CN(C)CC3	-7%	3	-7	-2.6	-4	-6	5.2	0.5	1.0	10
Cc1sc2ncnc(N3CCC(C(=O)Nc4ccc(C#N)c(Cl)c4)CC3)c2c1C	.	19	-5	-12	-10	-35	11	4.9	?	-2
CNC(C)(C)Cc1ccccc1	.	.	.	-1.5	11	16	2.6	.	-0.5	0
NCC1(c2ccc3c(c2)OCCO3)CCCC1	0%	0	-6	-4.7	.	.	.	0.8	0.2	4
CCOC(=O)c1c(N)n(Cc2ccccc2)c2nc3ccccc3nc12	23%	10	-9	.	.	.	.	?	0.5	-3
Cc1ccc(-c2cc(-c3ccc(C)cc3)[n+](-c3ccccc3)c(-c3ccc(C)cc3)c2)cc1	.	49	106*	.	.	.	.	-0.6	-1.2	122*
O=C(Nc1cccc(Br)c1)c1c(O)c2c(n(Cc3ccccc3)c1=O)CCCC2	16%	-10	-1	1.1	-4	10	-3.4	0.3	-0.3	-7
COC(=O)C1=C(c2ccc(OC(F)(F)F)cc2)C[C@@H]2CC[C@H]1N2C(=O)NCCc1ccccc1	.	.	.	4.3	-7	-17	24	.	0.7	8
COC(=O)C1=C(c2ccc(F)cc2OCc2ccccc2)C[C@@H]2CC[C@H]1N2C(=O)NC1CCN(Cc2ccccc2)CC1	.	.	.	5.9	-40	-71	-15	.	0.1	0
CN1CCC(C)(O)C2CCCCC21 (stereo not drawn)	-10%	-7	-23	-3.8	22	7	0.7	-1.0	0.6	2
O=C1Nc2ccccc2/C1=C/c1nc2ccccc2c(=O)n1-c1ccc(O)cc1	-11%	19	8	-5.4	-1	-3	2.6	-4.8	-0.4	10
CC(C)OP(=O)(OC(C)C)C(O)c1ccccc1F (stereo not drawn)	9%	-7	-18	.	.	.	.	-2.0	0.2	-9
COc1ccc2c(CN3CC=C(c4ccccc4)CC3)cc(=O)oc2c1	5%	-11	-17	0.9	11	7	5.1	-1.3	-0.1	-1
O=C(Nc1ccc(F)cc1)OC1CN2CCC1CC2 (stereo not drawn)	-11%	-6	5	-4.1	6	2	2.5	0.9	2.4	.
CC1(C)NC(=O)[C@H]2CCCN21	.	-15	-4	-1.5	6	9	0.8	-3.3	1.6	.
CC(=O)N1CC(=O)Nc2ccc(Br)cc2C1c1ccc(F)cc1 (stereo not drawn)	-6%	-10	-7	-1.7	2	6	0.8	2.1	2.8	-1
O=C1Nc2ccccc2C1Cc1nc2ccccc2c(=O)n1-c1ccccc1 (stereo not drawn)	9%	-2	-20	9.5	0	2	-4.0	-1.4	0.9	-3
COCc1cc(OC(=O)N(C)C)nc(-c2ccc(C)c(Cl)c2)n1	-9%	12	-9	-0.9	-2	-3	-3.4	-0.1	0.5	-11
Cc1ccc(-n2c(O)c(C=NCCN3CCNCC3)c(=O)[nH]c2=S)cc1	6%	-5	-2	-1.7	4	2	-2.6	2.4	-0.7	-4
O=[N+]([O-])c1ccc(NC2CCN(Cc3ccccc3)CC2)c2ccncc12	.	60*	36	4.1	13	2	33	-2.6	-0.4	-2
Cc1cc(Oc2ccc(C(F)(F)F)cc2[N+](=O)[O-])c2c3c(c(=O)oc2c1)CCC3	20%	10	0	.	.	.	.	1.9	-0.8	5
CN(C(=O)CN1CC=C(c2ccccc2)CC1)c1c(N)n(Cc2ccccc2)c(=O)[nH]c1=O	4%	-10	23	-0.3	19	17	0.2	4.8	?	.
C[C@]12CC[C@H](O)CC1=CC(=O)C1C2CC[C@]2(C)C(=O)CCC12 (stereo partly drawn)	-4%	.	.	0.0	.	.	.	.	0.5	4
COC(=O)C1=C(c2ccc(OC(F)(F)F)cc2)C[C@@H]2CC[C@H]1N2C(=O)NCCOc1ccccc1	.	.	.	-4.3	-18	-40	16	.	0.4	-1
Cc1c(Cl)cccc1N1C(=O)NC(=O)/C(=C\c2cc(C)n(-c3cccc(C(=O)O)c3C)c2C)C1=O	12%	1	2	-13	3	2	1.9	1.4	0.1	-7
O=C(NCc1cccnc1)Nc1ccc([N+](=O)[O-])cc1	1%	2	5	0.0	-7	5	4.2	0.5	0.5	81*
Clc1cccc(Cl)c1C1N2CCCN12 (stereo not drawn)	1%	2	-3	.	.	.	.	-1.1	1.6	-4
COc1ccc(-c2nn(CCC#N)cc2C(=O)Nc2ccccc2)cc1OC	.	-4	5	-2.1	1	5	3.9	-4.2	-0.2	-3
Fc1ccccc1CNCCc1ccc2c(c1)OCO2	.	28	-17	-1.8	4	6	-2.1	-0.1	1.3	-7
CC(=O)Nc1ccccc1C(=O)OCC(=O)c1ccccc1Cl	2%	-22	2	.	.	.	.	-1.4	-1.5	2
COc1ccc(C(O)CNC(C)C)c(F)c1OC (stereo not drawn)	.	-10	29	1.0	4	-7	-13	0.5	-0.9	-5
O=C1C(Cc2cnc[nH]2)NC(=S)N1c1ccccc1 (stereo not drawn)	-2%	-14	-3	-2.3	-2	7	-3.0	-3.2	0.5	4
CCOC(=O)C1CCN(/C=C2/C(=O)NC(=S)N(c3ccccc3F)C2=O)CC1	0%	-9	?	-0.2	17	5	1.6	-0.9	0.1	4
CN1CCN(C(=O)COc2ccc3ccccc3c2)CC1	.	4	-2	2.1	4	7	0.3	-1.3	1.0	-6
COc1ccc(-c2nc3ccccc3c(=O)o2)cc1	1%	-2	2	-2.2	.	.	.	2.5	-7.2	-1
O=C(Cn1nc(-c2ccc(Cl)cc2)ccc1=O)N1CCC2(CC1)OCCO2	-2%	3	-10	0.3	-4	1	-5.3	-0.7	0.1	-14
COC(=O)C1=C(c2cccc(OC)c2OC)C[C@@H]2CC[C@H]1N2C(=O)N1CCCC1	.	7	3	0.1	1	-2	-6.1	-1.7	0.6	-4
Cc1cc(OC(C)C(=O)NCc2ccncc2)c2c3c(c(=O)oc2c1)CCC3 (stereo not drawn)	3%	2	-8	0.7	8	14	-0.4	0.0	0.2	.
Cc1cccc(OP(=O)(Oc2cccc(C)c2)OC(c2ccccc2)C(F)(F)F)c1 (stereo not drawn)	16%	-1	26	.	.	.	.	-5.2	-0.1	6
Cc1cccc(N2C(=O)/C(=C/c3ccc(N4CCN(C)CC4)o3)C(=O)NC2=S)c1C	8%	-6	9	1.0	22	8	5.1	-2.3	-0.4	3
O=c1[nH]c(=S)n(CCC2=CCCCC2)c(O)c1/C=N/Nc1ccccc1	32%	-8	3	-1.9	-1	7	34	1.4	-0.4	-1
Cc1ccc(OP(=O)(O)Oc2ccc(C)cc2)cc1	.	-3	1	.	.	.	.	2.4	-0.3	-3
CC1(C(O)(C#CCN2CCCCC2)c2ccccc2)CCCC1 (stereo not drawn)	.	6	-6	2.6	-29	-44	-0.8	1.9	0.0	3
O=C1NC(=O)N(CCNc2ncc(C(F)(F)F)cc2Cl)C(=O)C1Cc1ccc(Cl)cc1 (stereo not drawn)	0%	-21	12	.	.	.	.	2.5	-0.2	-3
O=C(c1cccnc1)c1cc2ccccc2[nH]1	-4%	2	5	.	.	.	.	0.0	-1.8	-1
CCOc1ccccc1CNCCc1ccc2c(c1)OCO2	.	15	-10	2.2	0	-1	-3.5	-1.9	0.2	1
COc1cc(OC)cc(C2(C#N)CCN(C)CC2)c1	3%	-9	-6	-2.7	8	7	-7.9	4.5	-0.5	0
Cc1nc2cc(C(=O)N3CCC4(CC3)OCCO4)ccc2n1-c1cccc(F)c1	29%	6	-2	.	.	.	.	-1.5	-0.2	0
NP(=O)(OCCCCc1ccccc1)Oc1ccccc1Cl (stereo not drawn)	.	-15	-13	-0.9	-12	-11	3.6	2.0	-0.7	-1
CC1(C)C2([N+](=O)[O-])CN3CC1([N+](=O)[O-])CN(C2)C3c1cccnc1 (stereo not drawn)	.	1	-7	-2.7	10	1	2.0	-4.6	-0.8	.
CC(Cc1ccccc1)NC(=O)CCCCC(=O)NC(C)Cc1ccccc1 (stereo not drawn)	4%	-4	-4	-6.9	9	7	-0.3	-0.3	0.6	0
COC(=O)c1ccc(N=C(c2ccccc2)c2c(O)n(C)c(=O)n(C)c2=O)cc1	-3%	-3	-1	-2.3	5	5	-0.1	-0.8	0.1	0
CC12CCC3C(CC=C4CC(O)CCC43C)C1C/C(=C\N1CCCC1)C2=O (stereo not drawn)	12%	13	-13	.	.	.	.	-3.2	.	.
C[C@]12CCC(=O)C=C1C=CC1C2CC[C@]2(C)C(=O)CCC12 (stereo partly drawn)	2%	.	.	5.1	-27	-40	-2.0	.	-0.4	1

(listing goes on)
mol	Vif A3G	T cruzi inh	Calb FLC	MLL AF4-AF9 inh	Ecoli rRNA inh	Ecoli rRNA inh OD600	Ecoli rRNA inh RFP	RanGTP-Impb inh	Bfl-1 A1 inh	Beta apoptosis
COc1ccc(N2CC2c2ccncc2)cc1 (stereo not drawn)	-8%	1	-15	2.2	16	8	-0.3	-4.7	-0.2	-2
Cc1ccc2c(c1)CC1(CN2C)C(=O)NC(=O)N(c2ccccc2C)C1=O (stereo not drawn)	17%	-2	12	.	.	.	.	?	0.5	-2
Cc1cc(S(N)(=O)=O)ccc1N=Cc1c(O)n(-c2ccccc2)c(=O)[nH]c1=O	-8%	-14	-12	3.2	1	6	-0.9	2.6	-0.3	-3
CCCCC(=O)N/N=C/c1c(O)n(CCCC)c(=S)[nH]c1=O	.	-22	3	-5.2	10	3	2.9	2.6	-0.3	-6
CC1(O)C[C@]2(C)N(O)C3CCCC[C@@H]3N2O1 (stereo partly drawn)	-3%	-3	2	.	.	.	.	2.0	0.4	-3
CN(C)C(=O)CSc1nnc([C@@H](N)Cc2ccccc2)o1	4%	-4	?	.	.	.	.	1.4	-0.7	-8
CCCn1ncc(C(=O)O)c1C	0%	0	3	.	.	.	.	1.8	0.8	-3
CCCCC(=O)N/N=C/c1c(O)n(CCc2ccc(OC)c(OC)c2)c(=O)[nH]c1=O	-6%	0	-4	1.4	5	8	2.3	-1.0	0.1	0

The list is partial; the hit share may differ from the screen's.
